Spn PMK inh – S. pneumoniae PMK inhibitors, primary screen, biochemical, mevalonate pathway, pilot trial included. purified PMK, PK/LDH-coupled NADH absorbance 340 nm. inhibition, % at 10 µM. 65,000 compounds, 0.49% hits;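 active means top-ranked compounds by inhibition in the single 10 µM screen, taking a fixed number of the strongest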;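 further: 0% = full reaction with DMSO carrier and 100% = background rate without enzyme reaction; no value below 0 was filed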
Alkaline phosphatase – human TNAP enzyme inhibitors, biochemical, luminescent (AID 518); purified TNAP enzyme, luminescent substrate readout; higher % means a stronger effect; inhibition, % at 20 µM; hits with a dose series show IC50 in µM; 64,000 compounds, 0.09% hits; in the data active means a potency from the dose series; inactive means the rest, 99 in 100 with inhibition below about 22%;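 further: plate controls were vehicle for no effect and reference inhibitor for full effect; many of its hits are not listed in these tables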
LYP inhibition – LYP phosphatase inhibitors, primary screen, biochemical, DiFMUP fluorescence, recombinant catalytic domain, 10 µM (AID 606) | Tyrosine-protein phosphatase non-receptor type 22 (Homo sapiens) | recombinant LYP catalytic domain, DiFMUP fluorescence; higher % means a stronger effect | one-dose inhibition, % at 10 µM; IC50 in µM for titrated hits | 52,000 tested, under 10 active;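 active means IC50 under 40 µM in the dose-response test; inactive means IC50 of 40 µM or more, or never dose-tested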
Spn DPM-DC inh – S. pneumoniae DPM-DC inhibitors, primary screen, biochemical, PK/LDH-coupled NADH fluorescence; purified DPM-DC; 65,000 compounds, 0.49% hits; diphosphomevalonate decarboxylase (Streptococcus pneumoniae D39); calls only at 10 µM; AID 556, 2006;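 active means the 320 compounds with the highest percent inhibition in the single-dose primary screen, excluding strongly autofluorescent ones, cut at about 32% in these data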;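 further: kinetic rate of NADH fluorescence loss reporting ADP formed by the decarboxylase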
MK inhibit – S. pneumoniae MK inhibitors, primary screen, biochemical, PK/LDH-coupled NADH absorbance; AID 555, 2006; purified MK, PK/LDH-coupled NADH absorbance 340 nm; mevalonate kinase [Streptococcus pneumoniae D39]; 65,000 compounds, 0.48% hits; inhibition, % at 10 µM;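 active means ranked among the strongest by inhibition in the single 10 µM screen, a fixed top-ranked set picked for dose follow-up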; further: no value below 0 was filed
Spn PMK inh pilot replicates – also measured in Spn PMK inh; calls as there; inhibition, %; measured here: pilot screen replicates
MK inhibit pilot replicates – further read-out of MK inhibit, marked with its call; inhibition, %; measured here: pilot screen replicates
Spn DPM-DC inh pilot screen % – also measured in Spn DPM-DC inh; calls as there; inhibition, %; measured here: pilot screen trials
Active calls of the source: *; i = inactive; nt = not tested or not shown; & = joins results of further samples. Some of the compounds tested. The share of hits here may be higher or lower than overall.

| nr | smiles | Spn PMK inh | Spn PMK inh pilot replicates | Alkaline phosphatase | LYP inhibition |
| --- | --- | --- | --- | --- | --- |
| 1 | CN1Cc2c(N)cccc2C(c2ccccc2)C1 (stereo not given) | 2.0 | 5.5 | 7.1% | 14.0% |
| 2 | CC(=O)Nc1ccccc1O | 1.0 | 3.5 | 12.9% | 15.2% |
| 3 | CN(C)CCCN1c2ccccc2CCc2ccc(Cl)cc21 | 9.0 | 0.5 | 5.3% | 22.8% |
| 4 | CC(C)OC(=O)C(C)(C)Oc1ccc(C(=O)c2ccc(Cl)cc2)cc1 | 0.0 | 0.5 | 11.3% | 14.4% |
| 5 | CC(=O)Nc1c(I)c(NC(C)=O)c(I)c(C(=O)O)c1I | 4.0&0.0 | 5.0 | 6.3% | 15.4%&18.2% |
| 6 | Cc1cccc(Nc2ccccc2)c1 | 3.0 | nt | 8.1% | 4.8% |
| 7 | CNCCCC12CCC(c3ccccc31)c1ccccc12 | 2.0 | 6.0 | 8.1% | 12.6% |
| 8 | CN(C)CCOC(c1ccccc1)c1ccccc1 (tested in a mixture with another compound) | 3.0 | 0.0 | 4.5% | 4.4% |
| 9 | COc1ccc(CCN2CCC(Nc3nc4ccccc4n3Cc3ccc(F)cc3)CC2)cc1 | 9.0 | 0.5 | -1.6% | 13.6% |
| 10 | COc1ccc(Cl)cc1C(=O)NCCc1ccc(S(=O)(=O)NC(=O)NC2CCCCC2)cc1 | 9.0 | 0.0 | 11.5% | 16.3% |

| nr | Spn DPM-DC inh | Spn DPM-DC inh pilot screen % | MK inhibit | MK inhibit pilot replicates |
| --- | --- | --- | --- | --- |
| 1 | i | 6.5 | 5.0 | 5.0 |
| 2 | i | 1.5 | 9.0 | 0.0 |
| 3 | i | 0.5 | 7.0 | 0.0 |
| 4 | i | 1.5 | 8.0 | 0.0 |
| 5 | i | 4.5 | 7.0&3.0 | 3.0 |
| 6 | i | nt | 13.0 | nt |
| 7 | i | 4.0 | 6.0 | nt |
| 8 | i | 0.0 | 6.0 | 0.0 |
| 9 | i | 0.0 | 13.0 | 0.0 |
| 10 | i | 2.0 | 6.0 | 0.0 |

Compound profiles (already shown). Order of values: Spn PMK inh	Spn PMK inh pilot replicates	Alkaline phosphatase	LYP inhibition	Spn DPM-DC inh	Spn DPM-DC inh pilot screen %	MK inhibit	MK inhibit pilot replicates
`CN(C)CCOC(c1ccccc1)c1ccccc1` (tested in a mixture with another compound) is entered as 3.0	0.0	4.5%	4.4%	i	0.0	6.0	0.0
`CNCCCC12CCC(c3ccccc31)c1ccccc12` is entered as 2.0	6.0	8.1%	12.6%	i	4.0	6.0	nt
`Cc1cccc(Nc2ccccc2)c1` is entered as 3.0	nt	8.1%	4.8%	i	nt	13.0	nt
`CN1Cc2c(N)cccc2C(c2ccccc2)C1` (stereo not given) is entered as 2.0	5.5	7.1%	14.0%	i	6.5	5.0	5.0

As entered above:
Value for CC(=O)Nc1c(I)c(NC(C)=O)c(I)c(C(=O)O)c1I in LYP inhibition: 15.4%&18.2%
Value for CN1Cc2c(N)cccc2C(c2ccccc2)C1 (stereo not given) in Spn PMK inh: 2.0

3 compounds from above, arranged by molar mass, high to low:
| nr | smiles | Spn PMK inh | Spn PMK inh pilot replicates | Alkaline phosphatase | LYP inhibition |
| --- | --- | --- | --- | --- | --- |
| 9 | COc1ccc(CCN2CCC(Nc3nc4ccccc4n3Cc3ccc(F)cc3)CC2)cc1 | 9.0 | 0.5 | -1.6% | 13.6% |
| 3 | CN(C)CCCN1c2ccccc2CCc2ccc(Cl)cc21 | 9.0 | 0.5 | 5.3% | 22.8% |
| 1 | CN1Cc2c(N)cccc2C(c2ccccc2)C1 (stereo not given) | 2.0 | 5.5 | 7.1% | 14.0% |

| nr | Spn DPM-DC inh | Spn DPM-DC inh pilot screen % | MK inhibit | MK inhibit pilot replicates |
| --- | --- | --- | --- | --- |
| 9 | i | 0.0 | 13.0 | 0.0 |
| 3 | i | 0.5 | 7.0 | 0.0 |
| 1 | i | 6.5 | 5.0 | 5.0 |

Compound activity (PubChem BioAssay)
